Screens: PubChem, several laboratories
PKD1 inh = inhibitors of human PKD1 kinase. Q15139. PKD1 kinase fluorescence polarization assay. inhibition, %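 (about 10 µM by stock and volumes)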. hit rate 0.056% among 200,000;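 active means inhibition of 50% or more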;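 further: controls were vehicle for no effect and a reference inhibitor for full effect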
Target sequence (Q15139 whole entry, looked up): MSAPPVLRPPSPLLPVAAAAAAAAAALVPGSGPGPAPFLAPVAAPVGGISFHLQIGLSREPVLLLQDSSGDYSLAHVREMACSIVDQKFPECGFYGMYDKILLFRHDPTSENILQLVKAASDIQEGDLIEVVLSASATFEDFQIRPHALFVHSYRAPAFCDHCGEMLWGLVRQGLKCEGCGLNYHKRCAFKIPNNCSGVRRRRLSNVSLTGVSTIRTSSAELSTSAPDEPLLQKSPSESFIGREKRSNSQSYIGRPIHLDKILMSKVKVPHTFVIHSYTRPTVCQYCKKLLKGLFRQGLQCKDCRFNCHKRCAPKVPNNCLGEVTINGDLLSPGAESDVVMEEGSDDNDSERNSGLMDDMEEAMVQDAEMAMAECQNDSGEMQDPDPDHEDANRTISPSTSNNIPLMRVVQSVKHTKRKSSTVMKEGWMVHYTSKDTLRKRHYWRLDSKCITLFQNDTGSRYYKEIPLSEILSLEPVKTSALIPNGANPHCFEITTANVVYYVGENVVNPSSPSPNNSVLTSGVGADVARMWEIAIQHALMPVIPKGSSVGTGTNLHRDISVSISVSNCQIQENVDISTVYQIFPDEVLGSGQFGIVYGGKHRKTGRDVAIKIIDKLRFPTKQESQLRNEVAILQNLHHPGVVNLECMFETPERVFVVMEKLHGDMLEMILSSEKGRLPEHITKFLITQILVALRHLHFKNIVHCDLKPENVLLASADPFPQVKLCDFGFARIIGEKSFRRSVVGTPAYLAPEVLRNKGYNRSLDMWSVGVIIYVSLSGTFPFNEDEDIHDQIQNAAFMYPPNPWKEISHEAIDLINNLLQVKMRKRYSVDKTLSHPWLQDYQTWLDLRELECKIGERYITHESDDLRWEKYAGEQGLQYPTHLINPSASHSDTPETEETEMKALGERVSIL
RGS16-Gao = RGS16-Galphao interaction regulator (human). bead-based flow cytometry RGS16-Galphao binding, fluorescence; actives lie on both sides. binding response (% of control), % at 10 µM. hit rate 0.38% among 220,000;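 active means below 25% or above 175%, edge rows of some plates excepted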;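 further: Galphao activated by GDP with aluminum fluoride before binding; 100% = wells without compound and 0% = beads without RGS; some results beyond the cut were filed as inactive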
Insulin prom inh = TRM-6 insulin promoter activity inhibition. inhibition, % at 2 µM. TRM-6 cells (human fetal islet line), insulin promoter-eGFP reporter, imaging; reporter expression induced with tamoxifen. AID 1273. hit rate 0.9% among 130,000;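 active means inhibition above the mean plus 3 SD, with well images judged a real hit on visual review, cut at about 60% in these data, passing the limit was not always enough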
GALR2 agonist = agonists of human galanin receptor 2 (GALR2). hit rate 0.48% among 140,000. O43603. AID 803. GALR2-expressing cells, agonist activation read-out. activation, %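 (tested at 5 µM)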;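 active means above mean plus 3 SD of all compounds, about 5% in these data, not always enough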;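 further: 0% = vehicle buffer wells and 100% = reference agonist at full effect; tested in CHO reporter cells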
HSV replic up = HSV replication enhancement | HSV replication augmentation in cells, fold increase | maximum fold increase | hit rate 0.005% among 220,000 | AID 1956;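 active means peak rise of 1.5-fold or more in the series; tested in PC3 cells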;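 further: first round at 10 µM; read as green reporter fluorescence; hits show the peak of a series up to 25 µM; 1 = signal of infected wells without compound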
Insulin prom inh cell count = further read-out of Insulin prom inh, marked with its call; normalized cell count, %; measured here: cell count, toxicity; reference of the scale not given here;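 cells exposed to compound for 48 h; stained nuclei by imaging scaled within each plate; lower means fewer cells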
HSV replic up primary fold = also measured in HSV replic up; calls as there; fold increase; compound at 10 µM; measured here: primary screen fold increase 10 uM; tested in PC3 cells;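 GFP signal in the first replicate; 1 = infected wells without compound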
Starred values were filed as active, the others as inactive; i = inactive; . = no result given.

SMILES	PKD1 inh	RGS16-Gao	Insulin prom inh	Insulin prom inh cell count	GALR2 agonist	HSV replic up	HSV replic up primary fold
Cc1ccc(NS(=O)(=O)c2cc(OCC(N)=O)c(C)cc2Cl)cc1C	-3	100	31	78	-0.6	i	0.67
CCCCCc1c(O)nc(SCC(=O)NCC2CCCO2)[nH]c1=O (stereo not drawn)	-12	106	-30	115	-2.1	i	0.95
CCOc1ccccc1NC(=O)C(Sc1nnc2ccccn12)c1ccccc1 (stereo not drawn)	-6	97	.	.	1.4	i	0.84
Brc1cccc(-c2cnc3n2CCCCC3)c1	-6	102	-17	82	-0.8	i	1
CC(=O)c1ccc(N2CCN(C(=S)Nc3cccc(F)c3)CC2)cc1	3	105	-138	80	-5.1	i	0.92
COCCCNC(=S)Nc1cccc(SC)c1	.	100	.	.	.	i	1
O=C(O)/C=C\C(=O)Nc1ccccc1C#Cc1ccc(Br)cc1	2	97	-63	108	-2.6	i	0.99
COc1nc(NC(C)C)nc(N(C#N)CN2C(=O)c3ccccc3S2(=O)=O)n1	.	98	.	.	.	i	0.9
C=CCN(C(=O)CN1CCOCC1)c1nc(C)c(-c2ccccc2)s1	-3	100	15	101	-1.9	i	0.9
COc1ccc(C2=NN(c3ccccc3)C(c3cccs3)C2)cc1 (stereo not drawn)	-4	102	-121	99	.	i	1.1
O=C(CN1C(=O)c2ccccc2S1(=O)=O)NCc1ccccn1	-7	103	-14	186	-3.9	i	0.92
NC(=O)C1(c2ccccc2)CCOCC1	-4	104	15	99	-2.3	i	1
COc1cccc(C(=O)NC(=S)Nc2cccnc2)c1	2	96	.	.	-0.4	i	0.99
C(=N\n1cnnc1)/c1cccc(OCCOc2ccccc2)c1	1	98	54	114	0.1	i	0.92
Cc1cc(OCC(=O)Nn2cnnc2)c(C)cc1Br	-2	100	-27	167	-0.3	i	0.95
CCn1c(O)c(N=NC(=O)c2cccnc2)c2cc(Br)ccc21	.	100	.	.	.	i	0.95
Cc1cc(C)cc(NC(=O)CSc2nnc(-c3ccccc3)n2N)c1	-4	97	23	174	-1.0	i	1
COC(=O)c1cn(NC(=O)Cc2cccc(OC)c2)c(=O)c2ccccc12	-2	42	-29	78	-1.1	i	1
CC1(C)Cc2c(C#N)c(NCC3CCCO3)nc(-c3ccco3)c2CO1 (stereo not drawn)	-1	154	9	107	4.8	i	1.1
Cc1ccsc1/C=N/n1c(-c2cccnc2)n[nH]c1=S	2	95	4	104	-1.3	i	1.2
CCOc1cc(NC(=S)NCC2CCCO2)c(OCC)cc1NC(=O)c1cccc(C)c1 (stereo not drawn)	-4	98	-45	138	-3.5	i	0.85
COc1ccc(C(=O)NCC(=O)OCC(=O)N2CC(C)CC(C)C2)cc1 (stereo not drawn)	-3	102	-43	130	-0.5	i	0.93
O=[N+]([O-])c1ccc(N2CCN(C(=S)NCc3ccc(Cl)cc3)CC2)cc1	6	105	.	.	.	i	0.97
C[N+]1(CCCCSc2ccc(O)cc2)CCCCC1	0	112	-12	143	0.3	i	0.9
Cc1ccc(OC/C(=N\O)C(C)(C)C)c([N+](=O)[O-])c1	-5	99	27	114	.	i	1
SMILES	PKD1 inh	RGS16-Gao	Insulin prom inh	Insulin prom inh cell count	GALR2 agonist	HSV replic up	HSV replic up primary fold
O=C(CSc1cnc2ccccc2n1)NC1CCCC1	1	98	-7	89	-0.7	i	0.83
O=C(c1cc2cc(Br)ccc2o1)N1CCCCC1	-5	104	27	61	.	i	0.97
Cc1oc2cc(O)ccc2c(=O)c1-c1ccccc1	3	98	.	.	.	i	1.1
O=C(O)CC(=O)Nc1cc(Cl)ccc1O	4	101	27	115	-2.0	i	0.67
COc1ccc(N=c2scc(C)n2CCCN2CCCC2=O)cc1	-5	99	.	.	.	i	0.97
Cc1cccc(NC(=S)NNC(=O)c2ccc3c(c2)OCO3)c1	2	93	.	.	-0.7	i	0.91
CCC(CC)NC(=O)Cc1ccc(S(=O)(=O)N2CCOCC2)s1	2	99	-38	112	-1.0	i	1.2
CC(NS(=O)(=O)c1ccccc1)C(N)=O (stereo not drawn)	-4	100	-14	102	-2.0	i	0.95
O=C(NC(=S)N1CCN(c2nc(-c3ccccc3)cs2)CC1)c1cccnc1	0	102	-17	55	-0.7	.	.
CCOc1ccc(-n2c(CCc3ccccc3)n[nH]c2=S)cc1	-2	101	.	.	.	i	1
NC(=O)c1ccccc1NS(=O)(=O)c1ccc2c(c1)OCCO2	-11	103	-7	107	-0.7	i	1.1
COc1ccc(CC(NC(C)=O)C(=O)NC2CCN(C(=O)Nc3ccccc3Cl)CC2)cc1OC (stereo not drawn)	-4	101	33	96	-2.2	i	0.82
O=C(Nc1cccc(Cl)c1)OC1CCCCc2cccnc21 (stereo not drawn)	.	116	.	.	.	i	1
Cc1cc(C)nc(NC(=O)C2c3ccccc3Oc3ccccc32)n1	3	106	-29	110	.	i	0.98
Cc1cccc(-n2c(O)c(C=Nc3ccc(O)cc3)c3ccccc3c2=O)n1	-10	104	7	88	-2.1	i	0.84
CC(C)CC(=O)c1c[nH]c(C(=O)N2CCN(Cc3ccccc3)CC2)c1	-1	96	.	.	.	i	0.97
CC(=O)Nc1ccc(C2=NNC(=Nc3cccc(S(=O)(=O)N(C)C)c3)SC2)cc1	0	144	0	80	.	i	0.91
COc1cccc(-c2nc(COc3ccc(Cl)cc3Cl)no2)c1	.	102	.	.	.	i	1
O=C(Nc1ccc(Cl)cc1)Nc1ccccc1CC[N+](=O)[O-]	4	100	20	110	.	i	0.93
O=C(Nc1ccccc1)C1=C[C@@H](C2CCCCC2)C[C@@H](OCc2ccc(CO)cc2)O1	8	98	.	.	.	i	0.58
COc1ccc(Nc2nc(N)nc(CSc3nccn3C)n2)cc1	-8	105	.	.	.	i	0.96
CCOC(=O)c1ccc(NC(=S)NN)cc1	-4	101	0	95	.	i	0.97
CCCc1nnc(NC(=O)CCN2C(=O)c3ccccc3C2=O)s1	-3	102	23	123	-2.6	i	0.83
Cn1nnnc1SCCNCc1ccc(Cl)cc1	0	100	-28	153	-0.8	i	0.96
CC(C)OC(=O)c1cccc(C(=O)O)n1	-5	104	45	103	-3.9	i	1

Quoted from the listing.
CC(C)OC(=O)c1cccc(C(=O)O)n1 in GALR2 agonist = -3.9
Cc1cccc(-n2c(O)c(C=Nc3ccc(O)cc3)c3ccccc3c2=O)n1 in Insulin prom inh cell count = 88
COc1cccc(C(=O)NC(=S)Nc2cccnc2)c1 in PKD1 inh = 2

(cont.)
SMILES	PKD1 inh	RGS16-Gao	Insulin prom inh	Insulin prom inh cell count	GALR2 agonist	HSV replic up	HSV replic up primary fold
COc1ccc(-n2c(SCC(N)=O)nnc2-c2ccc(NS(=O)(=O)c3ccc(C)cc3)cc2)cc1	1	97	-2	116	-0.5	i	0.8
CCC1(C)Cc2c(sc(NC(=S)NC(=O)c3ccccc3)c2C#N)CO1 (stereo not drawn)	7	85	-62	113	-1.4	i	0.93
Cc1cc(NC(=O)c2ccc3c(c2)OCO3)no1	-6	95	85*	69*	-3.0	i	1.2
COc1cc2c(-c3ccccc3O)nc3c(c(C)nn3-c3ccccc3)c2cc1OC	-2	174	.	.	2.0	i	1.1
CC12CC(NC(=O)N1c1cccc(C(=O)N3CCN(c4ccccc4F)CC3)c1)c1ccccc1O2 (stereo not drawn)	1	100	-4	69	-0.8	i	1
CC1(C)CC2c3cccc(C(=O)O)c3C(=O)N2c2c1ccc1ccccc21 (stereo not drawn)	7	135	29	62	-2.4	i	1
CN(C)CCN(Cc1ccccc1)S(=O)(=O)c1ccc2c(c1)n(C)c(=O)c(=O)n2C	.	99	.	.	.	i	0.91
COC(=O)[C@@]1(C)CC[C@]2(C)CC[C@@]3(C)C(=CC(=O)C4[C@@]5(C)CC[C@H](O)C(C)(C)[C@@H]5CC[C@]43C)[C@H]2C1 (stereo partly drawn)	.	101	.	.	.	i	0.97
Cc1cccc(C)c1Nc1nnc(SCC(=O)NC2CCS(=O)(=O)C2)s1 (stereo not drawn)	-16	102	-10	124	0.7	i	0.96
Cc1ccsc1C1C2=C(CC(C)(C)CC2=O)Nc2ncnn21 (stereo not drawn)	4	110	.	.	-1.3	i	0.88
Cc1cccc(C)c1NC(=O)CSc1nnc(-c2ccco2)n1N	2	108	.	.	-0.8	i	0.99
CCc1ccccc1NC(=S)N(CCOC)C(C)c1ccco1 (stereo not drawn)	.	93	.	.	.	i	0.9
Cc1ccc(S(=O)(=O)NN2C(=O)c3ccccc3NC2c2ccccc2)cc1 (stereo not drawn)	6	110	-28	58	.	i	0.95
Cc1cc(C(=O)N(C2CCCCC2)C2CCCCC2)no1	10	100	.	.	-1.8	i	0.7
Cc1nc(C(=O)NC2CCCCC2)sc1C1(C)CC(c2cccc([N+](=O)[O-])c2)=NO1 (stereo not drawn)	.	98	.	.	.	i	0.79
O=C(NCc1ccco1)C1CCC(N2C(=O)C3C4CCC(C4)C3C2=O)CC1 (stereo not drawn)	2	103	-5	163	.	i	0.98
NC(=O)CC(NC(=O)c1ccccc1)c1ccc(NCc2ccccc2)c([N+](=O)[O-])c1 (stereo not drawn)	.	105	.	.	.	i	0.82
CC(C)CC1NC(=O)N(CC(=O)Nc2ccc3c(c2)CCC3)C1=O (stereo not drawn)	-3	103	36	173	.	i	0.78
Cc1ccc(-c2nnc(N3CC(C)OC(C)C3)c3ccccc23)cc1 (stereo not drawn)	-2	99	-33	103	.	i	0.88
O=C(CCS(=O)(=O)c1ccc(Br)s1)NC1CCCC1	-5	101	4	105	-1.3	i	1.1
COC(CN(C(=O)CCl)C(C(=O)NC1CCCCC1)c1ccc(C)cc1)OC (stereo not drawn)	6	47	-7	117	-0.1	i	0.99
Cc1nc2ccc(NC(=O)Cc3c(F)cccc3Cl)cc2s1	.	101	.	.	.	i	0.86
CCOc1ccc(S(=O)(=O)Nc2ccc(S(=O)(=O)N3CCCC3)cc2)cc1	9	103	-6	151	-0.1	i	1.2
Cc1sc(/N=C/c2ccccc2O)c(C#N)c1C	-9	104	62	96	-2.4	.	.
CCN1C(=C(C#N)C#N)C=Cc2ccccc21	-1	100	11	115	.	i	0.86
SMILES	PKD1 inh	RGS16-Gao	Insulin prom inh	Insulin prom inh cell count	GALR2 agonist	HSV replic up	HSV replic up primary fold
CCCCn1c(-c2ccccc2)cnc1SCC(=O)NCCc1ccc(OC)c(OC)c1	0	104	.	.	-1.4	i	0.91
CCc1nc(N(CC)CC)c2oc3ccccc3c2n1	-2	108	.	.	-2.8	i	0.95
O=C(CSc1ccc2nnc(-c3ccc(F)cc3)n2n1)NCC1CCCO1 (stereo not drawn)	-6	100	.	.	-1.3	i	0.87
CCOC(=O)C1CCN(Cc2ccc(O)c3ncccc23)CC1	-3	95	.	.	-2.0	i	0.69
Cn1c(SCc2ccc(Cl)cc2Cl)nc(C(F)(F)F)cc1=O	-2	104	.	.	-0.9	.	.
CCC(C(=O)Nc1cccc(C(=O)O)c1C)c1ccccc1 (stereo not drawn)	0	92	-12	78	.	i	0.87
COc1ccc(CCN(C(=O)C(F)(F)F)C(C(=O)NC2CCCCC2)c2ccc(C)s2)cc1OC (stereo not drawn)	1	102	28	53	-0.3	i	1
COC(=O)C(C)Sc1nc2c(cnn2-c2ccc(C)cc2)c(=O)[nH]1 (stereo not drawn)	-12	97	58	136	2.1	i	1.1
COc1ccc(CCNC(=O)c2cc(-c3ccc4c(c3)OCO4)on2)cc1OC	-4	65	.	.	-4.3	i	0.94
CC1=NN(C(=O)COc2ccccc2)C(O)(c2ccccc2)C1 (stereo not drawn)	-14	117	.	.	0.3	i	0.99
O=C(O)c1ccccc1C(=O)Nc1ccccn1	-2	105	11	44	-1.3	i	0.76
O=C(O)c1cccc(CSc2nc(-c3ccc(Cl)cc3)cc(C(F)(F)F)n2)c1	-5	122	.	.	0.2	i	1.2

Six compounds already listed, ordered by the number in HSV replic up primary fold, smallest number first:
molecule	HSV replic up primary fold
O=C(CSc1ccc2nnc(-c3ccc(F)cc3)n2n1)NCC1CCCO1 (stereo not drawn)	0.87
CCCCn1c(-c2ccccc2)cnc1SCC(=O)NCCc1ccc(OC)c(OC)c1	0.91
COc1ccc(CCNC(=O)c2cc(-c3ccc4c(c3)OCO4)on2)cc1OC	0.94
CCc1nc(N(CC)CC)c2oc3ccccc3c2n1	0.95
COC(=O)C(C)Sc1nc2c(cnn2-c2ccc(C)cc2)c(=O)[nH]1 (stereo not drawn)	1.1
O=C(O)c1cccc(CSc2nc(-c3ccc(Cl)cc3)cc(C(F)(F)F)n2)c1	1.2
